Assay outcomes as filed in PubChem.
Six1-Eya2 blk: blocks human Six1 binding to Eya2; AID 651725; Q15475+O00167; 360,000 tested, 0.56% active; AlphaScreen GST-Six1/His-Eya2 binding, biochemical; stronger effect = lower value; control for the full effect not named in the record; activity change, % (concentration not given with the values); in the data active = activity change below about -65%; inconclusive = about -30% to -65%; inactive = above about -30%; also: % is scaled to controls: 0 for no effect and ±100 for the full control effect
Target sequence (O00167 whole entry, looked up): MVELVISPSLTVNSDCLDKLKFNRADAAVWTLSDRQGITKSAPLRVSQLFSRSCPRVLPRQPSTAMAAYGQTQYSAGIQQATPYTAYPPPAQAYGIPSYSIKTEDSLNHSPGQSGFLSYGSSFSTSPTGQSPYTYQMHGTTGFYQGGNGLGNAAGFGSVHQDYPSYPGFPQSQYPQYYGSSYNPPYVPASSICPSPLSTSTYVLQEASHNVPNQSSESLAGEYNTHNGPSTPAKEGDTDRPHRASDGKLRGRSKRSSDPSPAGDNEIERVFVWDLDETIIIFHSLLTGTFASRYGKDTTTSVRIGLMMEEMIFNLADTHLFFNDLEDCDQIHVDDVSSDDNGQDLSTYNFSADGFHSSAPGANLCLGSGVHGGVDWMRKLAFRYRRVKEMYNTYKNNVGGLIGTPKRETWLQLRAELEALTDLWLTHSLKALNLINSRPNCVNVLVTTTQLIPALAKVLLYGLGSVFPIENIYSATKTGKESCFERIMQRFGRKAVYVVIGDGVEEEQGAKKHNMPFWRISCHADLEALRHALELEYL
Target sequence (Q15475 whole entry, looked up): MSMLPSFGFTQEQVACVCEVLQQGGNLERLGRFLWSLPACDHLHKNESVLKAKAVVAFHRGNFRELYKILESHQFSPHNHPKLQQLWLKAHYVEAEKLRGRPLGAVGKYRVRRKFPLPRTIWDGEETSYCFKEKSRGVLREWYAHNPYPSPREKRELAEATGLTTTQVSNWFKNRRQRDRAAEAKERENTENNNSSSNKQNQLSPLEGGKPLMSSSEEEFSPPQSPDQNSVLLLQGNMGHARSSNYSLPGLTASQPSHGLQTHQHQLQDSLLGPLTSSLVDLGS
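Six1/Eya2 binding was read as AlphaScreen signal after compounds were pinned into GST-Six1 plus His-tagged Eya2 (5X stock 250/500 nM) in pH 8.0 Tris/NaCl/TCEP buffer, beads added, then incubated 1 h, 37 C, dark.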
TRPML1 agonist: activates the human TRPML1 channel. 410,000 tested, 0.12% active. activation, % (test concentration not listed). Q9GZU1. TRPML1-expressing cells, Ca2+ dye fluorescence, FDSS; host cell line not named in the record; reference of the full effect not given here; in the data active = activation above about 50%; inconclusive = about 30% to 50%; inactive = below about 30%; also: 0% is about no effect; the text of the record puts the active cut at 80%
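In this qHTS format, compounds were pin-transferred onto Ca8-dye-loaded TRPML1-DL cells induced with Tet overnight, and intracellular Ca2+ fluorescence was recorded kinetically for 110 s after a 10 s baseline. A subsequent 4uM final 54-4 (EC80) addition followed by a second 110 s read served as the antagonist phase.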
D2 PAM: potentiates the human D2 dopamine receptor allosterically; DiscoveRx D2 beta-arrestin cells, luminescence, 90 min; 100% = 57 uM dopamine signal; potentiation, % (test concentration not listed); 360,000 tested, 0.23% active; active = potentiation of 50% or more; inconclusive = 30% to 50%; inactive = 30% or less;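 also: compound concentration not given in the record; tested on top of an EC20 dose of dopamine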
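D2 cells co-treated with compound plus 50 nM dopamine (EC20) for 90 min at 37 deg C to detect potentiation. Beta-arrestin recruitment was read as enzyme-fragment luminescence after 1 h at ambient temperature. Full response was set by 57 uM dopamine.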
D2 agonist: activates the human D2 dopamine receptor; P14416; activation, % (concentration not given with the values); DiscoveRx PathHunter D2 beta-arrestin, luminescence, 90 min; 100% = 57 uM dopamine signal; 360,000 tested, 0.084% active; in the data active = activation above about 40%; inconclusive = about 15% to 40%; inactive = below about 15%; also: compound concentration not given in the record; the text of the record calls up to 30% inactive
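DiscoveRx PathHunter D2 beta-arrestin cells (2,100/well) attached overnight, then compound-stimulated 90 min at 37 C in HBSS/10 mM HEPES/0.1% Tween-20 buffer; beta-galactosidase complementation read by luminescence after 1 h at ambient temperature. Dopamine 57 uM final (EC100) as control.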
TRPML1 blocker: human mucolipin-1 channel inhibition. Q9GZU1. TRPML1-inducible cells, Ca2+ dye fluorescence, FDSS; stronger effect = lower value; inhibition of EC80 agonist-evoked calcium signal. activity change, negative = inhibition, % (test concentration not listed). 390,000 tested, 0.02% active. AID 624415; in the data active means activity change below about -50%; inconclusive means about -30% to -50%; inactive means above about -30%;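 also: stimulus is agonist 54-4 at its EC80 concentration; % is scaled to controls: 0 for no effect and ±100 for the full control effect; compound concentration not given in the record; the text of the record puts the active cut at -80%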
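Tet-induced TRPML1-DL cells loaded with Ca8 no-wash calcium dye were read kinetically on FDSS. Compound addition was followed by EC80 agonist 54-4 (4 uM final); inhibition was read over 110 s.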
PINK1 modulator: changes PINK1 expression; PINK1 immunofluorescence, high-content cytometry, 24 h; Potency, µM (series often up to 76.6 µM), for inactives: top-dose activation (PINK1 increase), usual class: activators; 410,000 tested, 0.2% active; active = well fitted activation curve with a large enough effect; inconclusive = small, poorly fitted or top-dose-only effect; inactive = flat fitted curve, though single readings scatter; cell line not stated here;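 also: potency is read from the fitted curve at half-maximal effect; % of control where 0% means no effect; nearly all actives have a fitted effect of over 65% in size; a mitochondrial uncoupler was the plate control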
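PINK1 protein, normally rapidly degraded, was detected by immunofluorescence after 24 hour compound treatment of a stable cell line. Titration data (5 concentrations) came from laser-scanning cytometry, with CCCP-treated wells as controls.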
Starred values were filed as active, the others as inactive; u = inconclusive; x = not tested or not shown; & = joins results of further samples; [ ] = remark or other dose.

compound	Six1-Eya2 blk	TRPML1 agonist	D2 PAM	D2 agonist	TRPML1 blocker	PINK1 modulator
COC(=O)C1CCN(C(=O)COc2ccc(Cl)cc2)CC1	-4	0.0	-5	-0.6	-10	-0.1%
Cc1[nH]oc(=O)c1N=Nc1ccccc1	-5	0.0	57*	15	3	-1.2%
CCCCNC(=O)C[C@@H]1C[C@@]2(C(=O)OCC)CCC=C2N(Cc2ccc3c(c2)OCO3)C1=O	0	-1.2	x	x	x	1.7%
O=C(N1CCCCCC1)N1CCN(C(=O)N2CCOCC2)CC1	7	0.1	-14	-0.7	-24	0.7%
COc1cccc(/C=C/C(=O)N2CCN(S(=O)(=O)c3ccccc3)CC2)c1OC	2	0.8	3	2.2	-7	0.7%
Cc1cccc(NC(=O)COC(=O)[C@@H]2CCCN2C(=O)c2cccs2)c1	-8	-0.3	-9	-9.9	-13	-1.5%
O=C(CCCc1nc2ccccc2s1)N1CCN(c2ccccc2)CC1	10	2.1	-14	0.1	-3	0.9%
O=C(O)/C=C/C(=O)Nc1ccc(SC(F)(F)C(F)(F)C(F)(F)F)cc1	2	1.7	-9	3.9	23	5.4%
CN1C(=O)C(C)(C)c2cc(S(=O)(=O)N3CCCC(C(=O)NCc4ccccc4Cl)C3)ccc21 (configuration not stated)	7	-1.1	-4	-6.9	9	0.8%
CCCCn1c(N)c(N(CCOC)C(=O)COc2ccc(C(C)=O)cc2)c(=O)[nH]c1=O	-2	-0.2	-9	-2.3	-10	0.8%
CCOc1ccccc1OCCC(=O)OCC(=O)c1ccc[nH]1	-6	1.0	-15	4.0	-24	-1.5%
Cc1cc(C)n2nc(/C(C#N)=C/c3ccccc3)c(C#N)c2n1	8	0.1	-23	0.0	34	2.8%
COc1ccc(Cc2nc(-c3cccs3)no2)cc1OC	1	-1.1	2	-0.5	-3	0.4%
Cc1ccc(OCCOC(=O)c2nc3nccc(C)n3n2)cc1	3	-0.5	-3	1.5	26	1.2%
CC1(C)Cc2noc(N)c2C(C)(C)N1O	2	1.1	20	5.2	36	1.0%
COc1ccc(-c2[nH]nc3c2C(c2ccc(OC(=O)N4CCOCC4)cc2)C(C#N)=C(N)O3)cc1 (configuration not stated)	-5	0.2	-11	-3.4	1	-4.1%[38.3 µM]
Brc1cc2c(cc1C1Nc3ccccc3C3C=CCC31)OCO2 (configuration not stated)	-15	1.1	-4	-0.1	-9	29%
Cc1ccccc1NN1C(=O)C=CC1=O	10	0.3	-8	-2.4	6	-1.0%
CSc1cccc(NC(=O)CC2Oc3ccccc3NC2=O)c1 (configuration not stated)	3	4.5	-5	1.8	38	2.0%
Cc1ccc(-n2ncc3c(N4CCN(CCO)CC4)ncnc32)cc1Cl	x	0.7	x	x	-23	0.1%
COc1ccccc1[C@H]1C(c2cccc(C)c2)=NN(c2ccccc2)[C@@H]1CO	54	0.6	x	-0.2	1	3.3%
CSc1nc(Oc2ccc(Cl)cc2)c2sccc2n1	-1	3.5	-7	-0.9	0	3.7%
O=C(CSc1nc2c(c(=O)n1-c1ccc(F)cc1)SCC2)N1CCCC1	5	1.8	-1	1.7	20	-4.2%
COC(=O)C1=C(C(=O)OC)[C@@H]2N(C)c3ccccc3[C@@]23C[C@@H](C(=O)OC)N(C(=O)c2cccs2)C3=N1	-5	0.9	-6	-2.6	-8	2.9%
COc1cccc(C2=CC(=O)C[C@H](c3ccc(F)cc3)C2)c1OC	-11	1.5	-2	7.3	34	0.8%
Fc1ccc(NC(=S)Nc2ccc(Cl)cc2Cl)cc1	0	-0.3	-3	-3.5	4	u
Cc1c(-c2ccccc2)n(O)c(-c2ccc(N(C)C)cc2)[n+]1[O-]	-2	-0.4	-18	-3.2	2	-0.7%
COc1ccc(C(=O)Nc2cc(NC(=O)c3ccco3)ccc2OC)cc1Cl	x	-0.1	x	x	u	1.7%
Cc1oc(-c2ccccc2F)nc1CS(=O)(=O)CC(=O)N1CCN(Cc2ccccc2)CC1	4	0.3	-3	-0.6	-6	-0.1%
Cc1c(NC(=S)NC(=O)c2cccc3ccccc23)cccc1C(=O)O	0	-0.6	-17	-4.9	-17	-1.4%

Reprinted at random: two compounds from above, in no set order.
compound	Six1-Eya2 blk	TRPML1 agonist	D2 PAM	D2 agonist	TRPML1 blocker	PINK1 modulator
Cc1ccc(-n2ncc3c(N4CCN(CCO)CC4)ncnc32)cc1Cl	x	0.7	x	x	-23	0.1%
COc1ccc(C(=O)Nc2cc(NC(=O)c3ccco3)ccc2OC)cc1Cl	x	-0.1	x	x	u	1.7%

More compounds follow:
compound	Six1-Eya2 blk	TRPML1 agonist	D2 PAM	D2 agonist	TRPML1 blocker	PINK1 modulator
Cc1ccc(S(=O)(=O)N(CC(=O)N2CCc3ccccc3C2)c2ccc(C)c(C)c2)cc1	x	0.6	x	x	10	1.6%
Cc1ccc(/C=C/C(=O)OCC(=O)Nc2ccccc2Sc2ccccc2)cc1	10	3.4	-5	-4.1	4	0.2%
O=C1CCCc2c1cc(-c1ccccc1)n2-c1ccccc1	u	2.2	1	1.2	3	2.9%[38.3 µM]
COc1ccccc1C(=O)N/N=C1/NC(=O)CC(C(=O)Nc2ccccc2)S1 (configuration not stated)	7	-0.8	-6	-12	-13	2.2%
CCOc1ccc(NC(=O)N(CCN(C)C)C(C)c2cccnc2)cc1 (configuration not stated)	6	0.0	-8	-3.7	-9	1.0%
O=C(Nc1ccccc1NC(=O)c1c(F)cccc1F)c1c(F)cccc1F	-20	-1.3	-4	-2.2	-15	0.1%
Cc1cc(NC(=O)C(C)SCC(=O)Nc2cc(C(F)(F)F)ccc2N2CCCCC2)no1 (configuration not stated)	38	1.4	-22	-5.3	-9	1.4%
Cc1ccc(N2C(=O)CC(Nc3ccc(Cl)c(S(=O)(=O)N(C)C)c3)C2=O)c(C)c1 (configuration not stated)	-7	2.7	-4	0.6	-14	0.2%
CCOC(=O)Nc1ccccc1C(=O)Nc1cc(C)cc(C)c1	0	2.5	-10	-2.6	-14	3.4%
CCc1ccccc1NC(=O)Cn1c(=O)n(-c2ccc(C)cc2)c(=O)c2c1c1cc(C)ccc1n2C	x	1.0	x	x	0	4.3%
O=c1cc(O)nc(SCc2ccccc2)[nH]1	1	-0.2	2	2.8	10	x
c1ccc(C2Oc3ccccc3C3CC(c4cccs4)=NN32)cc1 (configuration not stated)	-5	0.2	-13	-3.0	-18	3.5%
O=C(Nc1ccc2nn(-c3ccccc3)nc2c1)c1cccs1	-4	0.7	-9	-0.2	-2	23%[38.3 µM]
Clc1ccc(CSc2nnc(/C=C/c3ccccc3)o2)cc1	13	3.2	-11	-1.7	9	8.0%
N#C/C(=C/c1cn(CC(=O)O)c2ccccc12)C(=O)NCc1ccccc1	-3	-0.1	-9	-3.2	-11	0.8%
CCOC(=O)c1[nH]c(C)c(CCC(=O)OC)c1C	-11	-0.4	-16	-1.8	1	40%[38.3 µM]
O=C1CC(SCc2nc3ccccc3[nH]2)C(=O)N1c1ccc(Cl)cc1 (configuration not stated)	-19	-0.3	-29	-7.8	3	-1.0%
CCCc1c(C)c2ccccc2[nH]c1=O	-3	1.3	-14	-2.0	-13	-0.8%
CCOc1ccccc1NC(=O)c1nc(S(=O)(=O)Cc2cccc(C)c2)ncc1Cl	8	1.9&1.7	-28	2.4	-8&7	-1.0%&7.1%
O=C(Cn1cc(SCc2cccc(C(F)(F)F)c2)c2ccccc21)N1CCCCCC1	x	0.5	x	x	17	3.8%
O=C(NCC(=O)N1CCCC(C(F)(F)F)C1)c1ccccc1Br (configuration not stated)	17	0.0	-15	2.4	7	-1.4%
O=C(NCc1ccc2c(c1)OCO2)C12CC3CC(CC(C3)C1)C2	-3	-0.6	13	-0.6	7	-0.7%
CCN(C[C@H]1N[C@@](CC)(C(=O)OC)[C@H]2C(=O)N(Cc3ccccc3)C(=O)[C@@H]12)S(=O)(=O)c1ccc(C(C)(C)C)cc1	-7	0.5	x	-1.0	-2	0.2%
CCCn1c(SCC(=O)NC2CCCC2)nnc1-c1cccnc1	4	0.3	-10	-1.4	39	0.1%
[C-]#[N+][C@H](O[C@@H]1O[C@H](CO)[C@@H](O)[C@H](O)[C@H]1O)c1ccccc1	-5	x	-21	-2.7	x	1.2%
COC(=O)[C@@]12CCCN1[C@H](c1ccc(-c3cccc(Cl)c3)cc1)[C@H]1C(=O)N(C)C(=O)[C@H]12	-15	-0.1	-12	-1.3	5	-0.3%
CC(NS(=O)(=O)c1ccc2[nH]c(=O)[nH]c2c1)c1ccc(F)cc1 (configuration not stated)	-13	-0.2	-10	0.7	-29	0.8%
CNc1nc(C)nc(N/N=C/c2ccccc2)n1	-2	1.7	-5	9.9	5	-2.1%
O=S(=O)(Cc1ccccc1)Oc1ccccc1	16	2.8	0	-2.6	1	6.4%
CC1(C(=O)NS(=O)(=O)c2cccs2)CCN1C(=O)CC1CCCC1 (configuration not stated)	7	-0.2	-2	-1.0	x	1.3%
Cc1ccccc1C1CC(=O)Oc2cc(O)ccc21 (configuration not stated)	-1	5.8	-4	-1.8	16	2.3%
CCCNC(=O)Cn1cnc2sc(C(=O)Nc3ccc4c(c3)OCO4)c(C)c2c1=O	4	0.3	3	1.3	7	u
Cc1nc2c(OCc3cc(Cl)cc(Cl)c3)cccn2c1N(C)C(=O)CCC1CCCC1	3	0.6	-4	2.2	x	24%
CC(=O)C1=C(O)C(=O)N(c2cc(C(C)(C)C)on2)C1c1ccc(C(C)C)cc1 (configuration not stated)	-1	-0.4	-13	-4.3	15	-0.4%
Cc1cccc(NC(=O)Nc2ccccc2[N+](=O)[O-])n1	-1	-0.5	-2	-5.1	13	2.9%
COc1ccccc1-c1cn[nH]c1-c1ccc(OCc2ccc(F)cc2)cc1O	-6	2.0	-3	13	11	-0.9%
